# Bioassay records: PubChem BioAssay, several laboratories
# GALR2 agonist: agonists of human galanin receptor 2 (GALR2); GALR2-expressing cells, agonist activation read-out; activation, %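 (tested at 5 µM)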; 0.48% of 140,000 active;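 active = above mean plus 3 SD of all compounds, about 5% in these data, not always enough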;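 also: 0% = vehicle buffer wells and 100% = reference agonist at full effect; tested in CHO reporter cells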
# Target sequence (O43603 whole entry, looked up): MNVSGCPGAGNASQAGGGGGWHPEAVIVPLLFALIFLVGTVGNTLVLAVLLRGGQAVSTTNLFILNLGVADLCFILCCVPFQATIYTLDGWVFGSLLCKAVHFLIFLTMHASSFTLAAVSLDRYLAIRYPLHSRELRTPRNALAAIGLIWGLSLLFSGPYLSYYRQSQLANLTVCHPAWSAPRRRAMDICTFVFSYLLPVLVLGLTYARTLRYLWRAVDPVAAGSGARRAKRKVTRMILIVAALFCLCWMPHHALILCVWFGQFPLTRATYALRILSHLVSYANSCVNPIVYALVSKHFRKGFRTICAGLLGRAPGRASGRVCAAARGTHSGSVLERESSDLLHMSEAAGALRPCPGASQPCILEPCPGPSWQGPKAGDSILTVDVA
# RGS16-Gao HTS: regulators of human RGS16-Galphao interaction | O15492+P09471 | bead-based flow cytometry RGS16-Galphao binding, fluorescence; actives lie on both sides | binding response (% of control), % at 10 µM | 0.38% of 220,000 active;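 active = below 25% or above 175%, edge rows of some plates excepted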;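 also: Galphao activated by GDP with aluminum fluoride before binding; 100% = wells without compound and 0% = beads without RGS; some results beyond the cut were filed as inactive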
# Target sequence (O15492 whole entry, looked up): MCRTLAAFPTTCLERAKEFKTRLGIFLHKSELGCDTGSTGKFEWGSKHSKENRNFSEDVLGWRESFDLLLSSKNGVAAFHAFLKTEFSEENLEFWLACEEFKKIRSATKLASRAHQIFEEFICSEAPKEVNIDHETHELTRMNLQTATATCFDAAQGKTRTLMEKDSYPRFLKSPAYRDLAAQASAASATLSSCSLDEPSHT
# Target sequence (P09471 whole entry, looked up): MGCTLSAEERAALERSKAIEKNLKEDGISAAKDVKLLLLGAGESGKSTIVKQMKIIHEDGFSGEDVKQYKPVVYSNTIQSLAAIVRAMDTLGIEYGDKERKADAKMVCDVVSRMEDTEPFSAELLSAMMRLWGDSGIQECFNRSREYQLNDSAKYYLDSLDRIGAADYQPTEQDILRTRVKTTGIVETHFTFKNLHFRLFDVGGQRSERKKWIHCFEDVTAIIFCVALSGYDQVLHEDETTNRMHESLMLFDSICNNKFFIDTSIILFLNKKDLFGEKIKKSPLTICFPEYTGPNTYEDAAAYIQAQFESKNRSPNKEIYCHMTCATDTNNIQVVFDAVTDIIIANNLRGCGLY
# HSV replic up: HSV replication enhancement. AID 1956. HSV replication augmentation in cells, fold increase. 0.005% of 220,000 active. maximum fold increase;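 active = peak rise of 1.5-fold or more in the series; tested in PC3 cells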;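 also: first round at 10 µM; read as green reporter fluorescence; hits show the peak of a series up to 25 µM; 1 = signal of infected wells without compound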
# PKD1 kinase inh: blocks activity of human protein kinase D1 | inhibition, %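 (about 10 µM by stock and volumes)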 | PKD1 kinase fluorescence polarization assay | 0.056% of 200,000 active | Q15139;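 active = inhibition of 50% or more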;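 also: controls were vehicle for no effect and a reference inhibitor for full effect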
# Insulin prom inh: TRM-6 insulin promoter activity inhibition; TRM-6 cells (human fetal islet line), insulin promoter-eGFP reporter, imaging; reporter expression induced with tamoxifen; inhibition, % at 2 µM; 0.9% of 130,000 active; AID 1273;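 active = inhibition above the mean plus 3 SD, with well images judged a real hit on visual review, cut at about 60% in these data, passing the limit was not always enough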
# Insulin prom inh cell count: further read-out of Insulin prom inh, marked with its call; normalized cell count, %; measured here: cell count, toxicity; reference of the scale not given here;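 cells exposed to compound for 48 h; stained nuclei by imaging scaled within each plate; lower means fewer cells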
# HSV replic up primary fold: second read-out of HSV replic up, no call of its own (marks repeat the call); fold increase; compound at 10 µM; measured here: primary screen fold increase 10 uM; tested in PC3 cells;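 GFP signal in the first replicate; 1 = infected wells without compound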
# * = called active by the depositor; i = inactive; / = no result given.
# Second line of a record – GALR2 agonist	RGS16-Gao HTS	HSV replic up	HSV replic up primary fold	PKD1 kinase inh	Insulin prom inh	Insulin prom inh cell count
- Cn1cc([N+](=O)[O-])c(C(=O)NCc2ccccc2)n1
→ /	96	i	0.93	/	/	/
- CCN(CC)S(=O)(=O)c1ccc(Cl)c(NC(=O)COC(=O)c2ccc(O)cc2)c1
→ /	105	i	0.94	-6	0	107
- CCC(C)NC(=O)C(=O)NCC1CCCN1CC (configuration not stated)
→ /	114	/	/	-2	0	110
- COc1ccc(-c2c3c(=O)n(C)c(=O)n(C)c3c3nnc4ccccc4n23)cc1
→ -3.6	/	/	/	-3	50	97
- Cc1ccc(/C=C(\C#N)C(=O)NCC2CCCO2)o1 (configuration not stated)
→ -2.6	98	i	1.2	-9	/	/
- COc1cccc(C2=NOC(C(=O)Nc3ccc(C(C)=O)cc3)C2)c1 (configuration not stated)
→ -1.8	100	i	0.92	0	6	101
- CCC(=O)Nc1nc(CC(=O)Nc2ccccc2OC)cs1
→ 0.1	123	i	0.93	-16	12	121
- CCC(CC)NC(=O)c1cc([N+](=O)[O-])ccc1N1CCOCC1
→ 0.6	104	i	0.89	-4	/	/
- CCOC(=O)c1cc(-c2ccc(C)c([N+](=O)[O-])c2)nc2c1c(=O)n(C)c(=O)n2C
→ /	101	i	0.85	1	/	/
- COc1cccc(C(=O)Nc2cc3c(cc2C(C)=O)OCCO3)c1
→ 0.4	53	i	0.96	6	49	101
- COc1ccc(CCNC(=O)c2ccc3c(c2)NC(=O)C(N2CCOCC2)S3)cc1OC (configuration not stated)
→ -1.2	104	i	0.88	-1	-29	64
- CC(C)c1ccc(NC(=O)COc2ccc(C3SCCS3)cc2)cc1
→ /	104	i	0.93	/	/	/
- Nc1ccc(-c2n[nH]c(=O)c3ccccc23)cc1N
→ -2.5	116	i	0.9	-2	-55	96
- Cc1ccccc1CNS(=O)(=O)c1ccccc1[N+](=O)[O-]
→ /	100	i	1.1	0	/	/
- CCCCc1ccc(/C=C2/C(=O)ON=C2c2ccccc2)s1
→ -0.6	111	i	0.93	2	17	137
- CCOC(=O)c1cn(-c2ccc([N+](=O)[O-])cc2)c2cc(Cl)c([N+](=O)[O-])cc2c1=O
→ -0.8	103	i	1.1	-11	/	/
- COc1ccnc(NCc2cccnc2)c1C#N
→ -1.5	105	i	1.4	1	-26	128
- O=C(O)COCC(=O)N1CCN(C2c3ccccc3-c3ccccc32)CC1
→ /	103	i	0.93	/	/	/
- CC(C(=O)Nc1ccc(Cl)cc1)c1ncc(C(F)(F)F)cc1Cl (configuration not stated)
→ -0.2	100	i	0.98	-3	68	36
- CCNC(=S)NNC(=O)c1cc(C2CC2)nc2ccccc12
→ -3.8	101	/	/	0	/	/
- Cc1ccc(NC(=S)Nn2cnnc2)cc1
→ /	108	i	0.96	1	29	113
- NS(=O)(=O)c1ccc2c(c1)C1C=CCC1C(C1CC=CCC1)N2 (configuration not stated)
→ -2.4	95	i	1.1	2	/	/
- COc1cc(C(=O)Nc2nc3ccccc3s2)ccc1OCc1c(C)noc1C
→ -2.7	99	i	0.73	-4	-14	106
- Cc1ccc(NCc2nnc(SCCN3CCCCC3)n2CC2CCCO2)c(C)c1 (configuration not stated)
→ -1.0	99	i	0.89	-20	-20	73
- CCN1C(=O)/C(=C2\SC(=S)N(CCCOC)C2=O)c2ccccc21
→ -1.9	95	i	0.96	-14	/	/
- CCCCN1C2=C(C(=O)CC(C)(C)C2)C(c2ccccc2)C2=C1c1ccccc1C2=O (configuration not stated)
→ -0.1	110	i	1	-3	53	151
- CC(=O)c1ccc(N2CCN(CC(O)COCc3ccco3)CC2)cc1 (configuration not stated)
→ /	101	i	1	1	/	/
- Cn1c(=O)c2c(ncn2CCN(CCO)Cc2ccccc2)n(C)c1=O
→ -4.4	101	i	1.1	-8	/	/
- C#CCNC(=O)/C=C/c1ccc(OC)cc1
→ -0.4	104	i	1.1	1	25	121
- COc1ccc(NC(=O)c2cccs2)cn1
→ /	99	i	1.2	/	/	/
- CCOc1ccc(NC(=O)CCNS(=O)(=O)c2ccc3c(c2)c(=O)n(C)c(=O)n3C)cc1
→ -1.9	102	i	0.86	6	9	51
- Cc1ccc(S(=O)(=O)N2CCOCC2)cc1NC(=O)COC(=O)CNC(=O)c1ccc(C(C)(C)C)cc1
→ 1.5	51	i	0.91	-3	/	/
- O=S1(=O)CC(NCc2ccccc2)C(Nc2ccc(Cl)cc2)C1 (configuration not stated)
→ 0.0	103	i	0.99	0	/	/
- Cc1cc2ccccn2c1C(=O)c1ccc(N/N=C/c2ccc(C(=O)O)cc2)c([N+](=O)[O-])c1
→ /	99	i	0.74	/	/	/
- C/C(N)=C(/C#N)C(=O)CSc1nnc(-c2ccc3c(c2)OCO3)o1
→ -1.1	135	i	0.9	-8	-20	120
- O=C(Cn1cnc2c(nnn2Cc2ccc(F)cc2)c1=O)NCc1ccc(F)cc1
→ /	102	i	0.88	-7	0	72
- COc1cc(NC(=O)CSc2nnnn2Cc2ccccc2)cc(OC)c1
→ /	102	i	1.1	0	/	/
- CCCCC(CC)CNC(=O)C1C2C=CC(C2)C1C(=O)O (configuration not stated)
→ -1.4	99	i	1.1	-1	29	143
- O=C(c1ccc2c(c1)OCO2)N(c1ccc(F)cc1)C1C=CS(=O)(=O)C1 (configuration not stated)
→ -0.8	100	i	1	14	/	/
- O=C(CN1CCN(Cc2ccccc2)CC1)N/N=C/c1ccco1
→ /	104	i	1.1	/	/	/
- Cc1ccccc1OCC(=O)N(Cc1ccc(N(C)C)cc1)C1CCS(=O)(=O)C1 (configuration not stated)
→ -0.4	91	i	0.96	-7	-47	84
- Clc1ccc(-c2nnc(COc3ncnc4ccccc34)o2)cc1
→ /	100	i	1	-4	/	/
- O=C1c2ccccc2C(=O)N1CCCCSc1nnnn1-c1ccccc1
→ -2.5	99	i	0.95	-5	/	/
- COC(=O)c1[nH]c2ccccc2c1NC(=O)CN1CCN(c2cccc(Cl)c2)CC1
→ 0.1	105	i	0.76	-4	/	/
- CN1CCN(c2nc(-c3cccnc3)nc3scc(-c4ccccc4)c23)CC1
→ /	99	i	0.73	-5	-60	118

# 4 entries from above, as labelled records.
Cc1ccccc1OCC(=O)N(Cc1ccc(N(C)C)cc1)C1CCS(=O)(=O)C1 (configuration not stated)
  GALR2 agonist: -0.4	RGS16-Gao HTS: 91	HSV replic up: i	HSV replic up primary fold: 0.96	PKD1 kinase inh: -7	Insulin prom inh: -47	Insulin prom inh cell count: 84

Clc1ccc(-c2nnc(COc3ncnc4ccccc34)o2)cc1
  GALR2 agonist: /	RGS16-Gao HTS: 100	HSV replic up: i	HSV replic up primary fold: 1	PKD1 kinase inh: -4	Insulin prom inh: /	Insulin prom inh cell count: /

O=C1c2ccccc2C(=O)N1CCCCSc1nnnn1-c1ccccc1
  GALR2 agonist: -2.5	RGS16-Gao HTS: 99	HSV replic up: i	HSV replic up primary fold: 0.95	PKD1 kinase inh: -5	Insulin prom inh: /	Insulin prom inh cell count: /

COC(=O)c1[nH]c2ccccc2c1NC(=O)CN1CCN(c2cccc(Cl)c2)CC1
  GALR2 agonist: 0.1	RGS16-Gao HTS: 105	HSV replic up: i	HSV replic up primary fold: 0.76	PKD1 kinase inh: -4	Insulin prom inh: /	Insulin prom inh cell count: /

# (list continues)
# Second line of a record – GALR2 agonist	RGS16-Gao HTS	HSV replic up	HSV replic up primary fold	PKD1 kinase inh	Insulin prom inh	Insulin prom inh cell count
- O=C(Nc1nnc(-c2ccccc2)s1)c1ccc(Cl)c(S(=O)(=O)N2CCOCC2)c1
→ -4.1	94	i	0.94	-11	/	/
- CCOc1ccc(-n2c(SCC(N)=O)nc3c(c2=O)SCC3)cc1
→ -1.2	163	i	0.97	2	3	87
- CCCCS(=O)(=O)C(=C1Nc2ccccc2N1)S(=O)(=O)CCCC
→ -1.3	103	i	1	-1	-61	148
- O=c1c2ccccc2c(-c2ccccc2)nn1-c1ccccn1
→ /	106	i	0.97	1	7	79
- O=C(NC(=S)Nc1ccccc1)c1cc([N+](=O)[O-])ccc1N1CCOCC1
→ /	101	i	0.91	-9	/	/
- CCOc1cc(NC(=S)NCCCN2CCOCC2)c(OCC)cc1NC(=O)C1CC1
→ -1.1	101	i	1.1	-2	/	/
- CC1=Nn2c(nnc2C2CCCCC2)SC1
→ -1.5	95	i	0.9	-2	/	/
- c1ccc2c(CSCCc3ccncc3)cccc2c1
→ -0.6	101	i	0.98	0	5	74
- OCCC1CN(Cc2nc(-c3ccccc3)cs2)CCN1Cc1ccc(F)cc1 (configuration not stated)
→ /	99	i	1	-2	/	/
- Cc1ccc2nc(NC(=O)C3CCN(S(=O)(=O)c4cnc[nH]4)CC3)sc2c1
→ -2.2	104	i	0.93	-5	-83	130
- CCOc1ccc(C(C)NC(=O)c2cccnc2OCC)cc1OCC (configuration not stated)
→ /	111	i	0.94	-3	-35	91
- COc1ccc(CNC(=O)C(NC(C)=O)C(=O)Nc2ccc(C(C)C)cc2)cc1 (configuration not stated)
→ /	102	i	0.95	3	/	/
- CCOc1ccc(NC(=S)N(CCc2c(C)[nH]c3ccccc23)Cc2ccco2)cc1
→ -2.9	/	/	/	-6	14	79
- COc1ccc(-c2nnc(-c3cc4c(ccc5ccccc54)oc3=O)o2)cc1
→ -2.4	83	i	0.87	-5	-16	170
- O=C(CN(c1ccc(F)cc1)S(=O)(=O)c1ccccc1)NCc1ccco1
→ -0.8	102	i	0.98	1	/	/
- CCOC(=O)N1CCN(c2c(-c3ccc(C)cc3)c(=O)c2=O)CC1
→ 0.1	110	i	0.99	-14	-58	144
- COCCN(C(=O)CNC(=O)c1ccco1)C(C(=O)NC1CCCC1)c1cccs1 (configuration not stated)
→ -1.1	102	i	0.99	-3	0	133
- CN(C)CCCNCC(=O)NN(c1ccccc1)c1ccccc1
→ /	103	i	0.91	/	/	/
- CSc1cccc(NC(=S)N2CCC(N(C)C3CCCCCC3)CC2)c1
→ /	100	i	0.8	-3	-80	71
- COc1ccccc1N1CCN(C(=O)CN(Cc2ccccc2)S(C)(=O)=O)CC1
→ -0.9	96	i	1.1	0	-5	110
- O=[N+]([O-])c1ccc(COn2nnc3ccccc32)cc1
→ /	98	i	1	-2	/	/
- CCOc1ccc(CCNC(=O)C2CCCN(C(=O)N(C)C)C2)cc1OCC (configuration not stated)
→ -1.2	100	i	0.92	-7	-1	69
- CN1CCc2c(sc(NC(=O)c3cc4cc([N+](=O)[O-])ccc4s3)c2C(N)=O)C1
→ /	104	i	0.64	-6	-242	82
- O=C(CN1C(=O)CSc2ccccc21)Nc1ccccc1C(=O)N1CCOCC1
→ -0.6	103	i	1	-15	/	/
- S=C(NCc1ccccc1)NN1CCOCC1
→ /	102	i	1.1	-3	/	/
- CC(=O)NC(C(=O)NCC(N)=O)C(C)C (configuration not stated)
→ 0.3	107	i	1.1	-9	24	59
- Cn1c(=O)c2c(nc(OCc3ccccc3)n2C)n(C)c1=O
→ -0.2	100	i	0.95	-3	/	/
- CC(C)(C)C(=O)Nc1nnc(SCC(=O)NCc2cccs2)s1
→ -0.9	106	i	1.1	-11	0	139
- O=C(CSc1nnc(-c2ccccc2)n1-c1ccc(Cl)cc1)NC1CCS(=O)(=O)C1 (configuration not stated)
→ -0.4	101	i	0.99	7	/	/
- Cc1ccnc(NC(=O)c2ccc(NC(=O)c3ccco3)cc2)c1
→ -1.9	97	i	0.94	-9	38	132
- CC(=O)Oc1ccc(OC(C)=O)c(SCCCCCCl)c1
→ /	101	i	0.78	-6	-169	19
- COc1ccc(S(=O)(=O)N2CN(Cc3ccco3)c3nc4ccccc4nc32)cc1
→ -2.0	114	i	1.1	-4	0	142
- O=C(/C=C\c1ccc2c(c1)OCO2)Nc1nnc(SCC(=O)OCc2ccccc2)s1
→ -0.6	116	i	0.85	4	/	/
- O=C(NCc1ccccc1)[C@@H]1C[C@H]1[C@@H](NP(=O)(c1ccccc1)c1ccccc1)c1ccccc1
→ -1.7	102	i	0.78	1	-33	80
- O=C(/C=C/c1ccccc1)NC1CC2CCCC(C1)N2Cc1ccccc1 (configuration not stated)
→ /	98	i	0.65	/	/	/
- CC(Oc1ccccc1)C(=O)Nc1ccccc1F (configuration not stated)
→ -0.9	42	i	1	-1	-6	131
- COc1ccc(CC(=O)NC(C)CCc2ccccc2)cc1 (configuration not stated)
→ /	109	i	0.96	-3	-75	59
- COc1ccc(C)cc1NCC(=O)Nc1ccc(C(C)(C)C)cc1
→ 0.1	101	i	0.97	4	/	/
- C/C(=N\NC(=O)Cc1cccn1C)c1cccc2ccccc12
→ -0.8	76	i	0.98	-3	12	111
- Fc1cc(F)cc(NC(=S)NN2CCOCC2)c1
→ /	99	i	0.98	2	8	119
- O=C(c1ccco1)N1CCN(C(=O)C2CC2)CC1
→ -0.4	100	i	1	-10	-50	148
- CCOC(=O)C1=C(CS(=O)(=O)c2ccccc2)NC(=O)NC1c1cccc(OC)c1 (configuration not stated)
→ /	100	i	0.94	-3	/	/
- COCc1[nH]nc2c1C(c1ccc(OC)c(OC)c1)C(C#N)=C(N)O2 (configuration not stated)
→ -0.8	102	i	0.94	0	6	68
